Screens from PubChem BioAssay.
Cruzain noTriton – cruzain (T. cruzi) inhibition without detergent; P25779; purified cruzain, Z-FR-AMC fluorescence, no detergent; Potency, µM, inactives show max response, negative = inhibition, usual class: inhibitors; hit rate 2.3% among 200,000; AID 1476;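 further: plate controls were enzyme without inhibitor for no effect and buffer without enzyme for full effect; nearly all actives have a fitted effect of over 40% in size; top concentration of the series not given in the record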
Target sequence (P25779 123-467 limits assumed): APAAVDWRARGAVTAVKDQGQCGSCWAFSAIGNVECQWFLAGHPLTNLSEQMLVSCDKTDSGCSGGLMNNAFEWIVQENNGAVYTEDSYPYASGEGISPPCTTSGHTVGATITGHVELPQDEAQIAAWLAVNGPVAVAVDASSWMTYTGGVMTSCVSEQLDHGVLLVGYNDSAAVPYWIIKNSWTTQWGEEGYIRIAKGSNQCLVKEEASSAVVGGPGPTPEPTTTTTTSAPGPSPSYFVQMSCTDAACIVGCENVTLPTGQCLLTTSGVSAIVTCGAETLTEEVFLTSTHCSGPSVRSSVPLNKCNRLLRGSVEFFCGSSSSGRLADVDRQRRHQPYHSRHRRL
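Detergent-free condition (0.00005% Triton X-100) in acetate buffer pH 5.5 with DTT. 1.5 nM enzyme and compound were pre-mixed 15 min, then 2 uM Z-FR-AMC substrate added; reaction progress from fluorescence change between first and third reads (60 s).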
Cruzain Triton – inhibitors of Trypanosoma cruzi cruzain with detergent; purified cruzain, Z-FR-AMC fluorescence, 0.01% Triton; Potency, µM, for inactives: max response, negative = inhibition, most hits filed as inhibitors; hit rate 0.43% among 200,000;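 further: plate controls were neutral wells for no effect and buffer without enzyme for full effect; nearly all actives have a fitted effect of over 40% in size; top concentration of the series not given in the record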
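Purified cruzain (1.5 nM final) was preincubated with compounds for 15 min at room temperature in 100 mM sodium acetate pH 5.5, 5 mM DTT, 0.01% Triton X-100. Reaction started with 2 uM Z-FR-AMC; AMC fluorescence change over 60 s gave activity.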
SARS PLpro yeast – blocks SARS-CoV papain-like protease in a yeast assay; Potency, µM (titrated, usually from 32.9 µM), without a hit: at the top dose activity, positive = growth rescue; hit rate 0.19% among 330,000; S. cerevisiae expressing SARS-CoV PLpro, growth rescue; control for the full effect not named in the record; active means well fitted rising curve with a large enough effect; inconclusive means small, poorly fitted or top-dose-only effect; inactive means no such curve, though single readings can be large or run the other way; further: 0% is about no effect; nearly all actives have a fitted effect of over 55% in size; growth read by luminescence after 48 h
StopGo reporter – FMDV 2A StopGo reporter, luciferase signal | human cells with a luciferase reporter of 2A StopGo recoding; control for the full effect not named in the record | Potency, µM (top dose mostly 57.9 µM), inactives show at the highest dose signal change, negative = less light | hit rate 1.2% among 410,000 | AID 1159524; active = well fitted falling curve with a large enough effect; inconclusive = small, poorly fitted or top-dose-only effect; inactive = no such curve, though single readings can be large or run the other way; tested in HEK293T cells; further: on the % scale 0 is the no-effect control and ±100 the full control effect; nearly all actives have a fitted effect of over 45% in size; luciferase light after 4 h
Marburg entry inh – Marburg virus entry inhibition. Marburg virus pseudotyped entry inhibition, cell reporter; control for the full effect not named in the record; about a third of the inactives were read at about 46 µM. Potency, µM (top dose mostly 37.8 µM), for the others: at the top dose activity change, negative = inhibition, usual class: inhibitors. hit rate 1.8% among 300,000; active = well fitted inhibition curve with a large enough effect; inconclusive = small, poorly fitted or top-dose-only effect, or effect the other way; inactive = flat fitted curve, though single readings scatter; tested in HEK293 cells; about a fifth of its hits are not listed in these tables; further: on the % scale 0 is the no-effect control and ±100 the full control effect; luciferase read-out
LASV entry inh – Lassa virus entry inhibition; Potency, µM (highest dose often 37.9 µM), without a hit: at the top dose activity change, negative = inhibition, usual class: inhibitors; AID 540256; Lassa virus pseudotype entry inhibition, cell reporter; control for the full effect not named in the record; hit rate 1.2% among 300,000; active means well fitted inhibition curve with a large enough effect; inconclusive means small, poorly fitted or top-dose-only effect, or effect the other way; inactive means flat fitted curve, though single readings scatter; tested in HEK293 cells; further: on the % scale 0 is the no-effect control and ±100 the full control effect; nearly all actives have a fitted effect of over 50% in size; luciferase read-out
NS1 function inh – inhibitors of influenza NS1 protein function | Potency, µM (highest dose often 46.1 µM), for inactives: top-dose activity, positive = more growth | S. cerevisiae slowed by influenza A NS1, growth recovery by OD600 | hit rate 0.4% among 270,000 | AID 2326; active means well fitted rising curve with a large enough effect; inconclusive means small, poorly fitted or top-dose-only effect; inactive means no such curve, though single readings can be large or run the other way; further: nearly all actives have a fitted effect of over 50% in size
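Read-out: OD600 growth recovery of NS1-expressing budding yeast. Cells grown overnight at 30C in -URA glucose medium, washed, resuspended and diluted 1:100 in 2% galactose assay medium, pH 6.0. Same strain lacking NS1 served as positive control.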
RE007 growth inh – less growth of the S. pombe RE007 Vpr strain. S. pombe RE007 Vpr strain, BacTiter-Glo ATP luminescence, 24 h; control for the full effect not named in the record. Potency, µM (titrated, usually from 92.2 µM), for inactives: top-dose activity change, negative = less growth. hit rate 0.21% among 360,000; active = well fitted falling curve with a large enough effect; inconclusive = small, poorly fitted or top-dose-only effect; inactive = no such curve, though single readings can be large or run the other way;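 further: on the % scale 0 is the no-effect control and ±100 the full control effect; nearly all actives have a fitted effect of over 50% in size; the assay follows cell death caused by Vpr and the record does not say whether a fall means rescue or toxicity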
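Fission yeast strain RE007, carrying one chromosomally integrated HIV-1 vpr copy, was seeded at OD 0.01 in PMG+AL medium with 23 nL pinned compound. After 24 h at 30 °C and 99% humidity, viability was read by BacTiter-Glo luminescence.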
* marks the source's active call; other numbers are inactive results; ? = inconclusive; . = no result given; & = joins results of further samples; [ ] = another dose, or the depositor's remark. Unless noted, the call rests on the fitted dose curve; in most records, active means well fitted curve in the direction sought with a large enough effect; inconclusive means small, poorly fitted or top-dose-only effect, or another doubt; inactive means no such curve, though single readings can be large; an effect the other way counts as inactive or inconclusive. Potency means the concentration at half of the fitted maximal effect. Hits appear at their usual frequency. About 4.7% of those tested had a hit in this group.

SMILES	Cruzain noTriton	Cruzain Triton	SARS PLpro yeast	StopGo reporter	Marburg entry inh	LASV entry inh	NS1 function inh	RE007 growth inh
CC(C(=O)O)N1C(=O)/C(=C/c2cccn2C)SC1=S (centres undefined)	7%	-13%	7%	-25%	5%	-6%	5%	4%
COc1cccc(N2CCN(c3nc(C)c(C)c(=O)[nH]3)CC2)c1	.	.	3%	-7%	-26%	-24%	11%	2%
COc1cc(N=C2C(=O)N3CCCc4cccc2c43)cc(OC)c1	?	-3.6%	-18%	-18%	?	1%	-21%	10%
COc1ccc(NC(=S)N2CCN(Cc3ccco3)CC2)c(OC)c1	1%	0.4%	16%	17%	?	10%	-1%	-13%
O=C(OCCCN1C(=O)c2ccccc2C1=O)c1ccco1	11%	-1.2%	1%	11%	-10%	11%	-8%	23%
Cn1c(=O)c2c(nc(N3CCc4ccccc4C3)n2C)n(C)c1=O	.	.	0%	1%	.	.	-8%	29%
O=c1[nH]c(C2CCN(S(=O)(=O)c3ccccc3)CC2)nc2c1nnn2Cc1cccc(Cl)c1	.	.	2%	-3%	?	?	22%	-1%
Cc1cccc(C(C)C)c1NC(=O)C1CN(S(=O)(=O)c2ccccc2)CCN1S(=O)(=O)c1ccccc1 (centres undefined)	7%	-3.3%	0%	13%	?	-11%	?	17%
O=C(C=Cc1cccs1)c1cccs1	.	.	.	33%[activator]	-6%[46.1 µM]	8%[46.1 µM]	.	?
O=C(N/N=C\c1cccc(Cl)c1)c1n[nH]c2c1CCCC2	2%	-1.2%	17%	7%	?	?	11%	5%
COc1ccc(N(CC(=O)N2CCc3ccccc3C2)S(C)(=O)=O)cc1OC	2%	1.3%	4%	19%	-19%	-1%	3%	11%
CC1(C)Cc2c(sc(NC(=O)COc3cccc4ccccc34)c2C#N)C(C)(C)N1	.	.	1%	-21%	?	?	3%	6%
CCN(CC)CCCNC(=O)c1ccc2nc(CCc3ccccc3)oc2c1	-3%	-1.0%	.	44%[activator]	.	?	.	.
O=C(Nc1ccc(S(=O)(=O)N2CCCC2)cc1)C1CCN(S(=O)(=O)c2ccc(F)cc2)CC1	.	.	-1%	?	?	?	.	19%
O=C(CCC(=O)N1CCC2(CC1)OCCO2)Nc1nnc(C(F)(F)F)s1	8%	3.0%	-1%	.	?	?	-5%	8%
COc1cc(/C=C(\C#N)C(=O)N2CCOCC2)ccc1OCc1ccccc1	.	.	0%	32%[activator]	26%[46.1 µM]	.	-5%	27%
O=C(COC(=O)c1cccc([N+](=O)[O-])c1)NC1CCCC1	.	.	2%	-11%	.	.	1%	21%
CC(=O)Nc1ccc(NC(=O)CC23CC4CC(CC(C4)C2)C3)cc1	.	.	-3%	-11%	21%[46.1 µM]	2%[46.1 µM]	-1%	7%
CCOC(=O)c1sc(NC(=O)CC)nc1C	.	.	-1%	6%	2%[46.1 µM]	?	.	3%
Cc1ccc(CCNC(=O)CCCn2nc(C)c3c(C)n(-c4ccc(C)cc4)nc3c2=O)cc1	-2%	-0.9%	-2%	1%&1%	-23%&-23%[46.1 µM]	-21%&12%[46.1 µM]	9%	-8%
C=CCn1c(O)c(C(C)=NCCCN2CCOCC2)c(=O)[nH]c1=O	-6%	2.4%	-11%	20%	-3%	16%	-8%	2%
COc1ccc(C)cc1NC(=O)Nc1ccncc1	.	.	26%	-3%	-8%[46.1 µM]	7%[46.1 µM]	5%	-17%
CCOC(=O)c1c(C)n(C)c2ccc(OC)c([N+](=O)[O-])c12	.	.	0%	13%	.	.	2%	7%
CNC(=O)COc1coc(CN2CCN(c3ccc(OC)cc3)CC2)cc1=O	.	.	-8%	4%	.	.	12%	1%
CCCOc1ccc(/C=N/NC(=O)C2CCCN2S(=O)(=O)c2ccc(Cl)cc2)cc1 (centres undefined)	5%	-3.5%	-5%	-13%	-8%	-27%	-9%	9%
Cc1cccc(NC(=O)CSc2nc3ccccc3nc2N2CCCCC2)c1	.	.	-5%	0%	.	.	0%	11%
COCCn1c(C)cc(C(=O)CSc2ccc3ccccc3n2)c1C	6%	-2.0%	-10%	-6%	2%	-10%	8%	-1%
CCCCN(CCCC)CP(=O)(c1ccccc1)c1ccccc1	6%	1.9%	-6%	-8%	?	-13%	-11%	1%
CC(C)(C)c1ccc(OCCNC(=O)Cc2ccc(F)cc2)cc1	13%	-4.7%	4%	?	?	?	-8%	-24%
CCOC(=O)c1nn(-c2ccc3c(c2)OCCO3)cc1O	.	.	0%	-34%	?	.	.	-14%
Cc1ccc(C(=O)NCCSc2ccc(Cl)cc2)cc1[N+](=O)[O-]	-7%	0.5%	-14%	-14%	0%	-1%	?	-15%
COc1ccc2cc(OCC(=O)NNC(=O)Nc3ccc(OC)c(OC)c3)ccc2c1	.	.	?	2%	-19%	-19%	4%	-17%
O=S(=O)(c1ccc(OCC(O)CNCc2ccco2)c(Cl)c1)N1CCOCC1 (centres undefined)	3%	4.5%	4%	-6%	?	?	13%	6%
CCCN(CC(=O)Nc1ccccc1OC)C(=O)c1cc(S(=O)(=O)NCc2ccccc2)ccc1C	.	.	1%	47%[activator]	?	-15%	-5%	15%
Cc1cc(C)n(CCC(=O)N/N=C/c2ccc(Cl)c([N+](=O)[O-])c2)n1	.	.	0%	-14%	-25%[46.1 µM]	-28%[46.1 µM]	-4%	2%
CCn1c(C)c(C)c2cc(C(=O)NCCCN3CCCCCC3)ccc21	.	.	-7%	-16%	?	?	21%	-11%
CCCOc1ccc(C(=O)CCC(=O)OC(C)C(=O)Nc2ccc(NC(C)=O)cc2)cc1 (centres undefined)	.	.	2%	12%	1%	6%[46.1 µM]	.	4%
CCn1c(/N=C/c2ccccc2NS(=O)(=O)c2ccc(C)cc2)nc2ccccc21	3%	-10%	-78%	3%	?	11µM*	-36%	-23%
Cc1nnc(SCc2nc3ccccc3s2)n1-c1ccccc1	20µM*	-1.8%	11%	.	1%	-17%	9%	-17%
COc1ccc(NC(=O)CSc2nc(O)cc(=O)n2-c2ccc(OC)cc2)cc1	.	.	-1%	7%	1%[46.1 µM]	4%[46.1 µM]	25%	8%
O=C1C=C(Nc2ccc(Cl)cc2)CC(c2ccc(Cl)cc2)C1 (centres undefined)	0%	-0.3%	-6%	.	?	?	-32%	2%
COc1ccc(NC(=O)c2ccco2)cc1NC(=O)COc1ccc(Cl)cc1C	2%	-0.7%	.	-19%	-3%[46.1 µM]	-1%[46.1 µM]	.	.
COc1cccc(C2C(C(=O)c3cccs3)=C(O)C(=O)N2c2cc(C)on2)c1 (centres undefined)	-18%	-4.7%	14%	64%[activator]	13%	13%	9%	-17%
CC1=NC(C(F)(F)F)(C(F)(F)F)C2=C(CC(C)(C)CC2=O)N1Cc1ccco1	-4%	3.2%	2%	.	-8%	24%	10%	1%
O=C(NNC(=O)c1sccc1-n1cccc1)c1cccs1	.	.	0%	9%	.	.	15%	4%
CCOc1ccc(-c2nnc(SCC(=O)Nc3ccc4c(c3)c3ccccc3n4CC)n2N)cc1	?	4.6%	-10%	-23%	12µM*	?	21%	24%
COc1ccc(CCNC(=O)CCc2ccsc2)cc1OC	.	.	-1%	-3%	-16%[46.1 µM]	12%	3%	22%
CCC/C=N/NC(=O)C1COc2ccccc2O1 (centres undefined)	.	.	-7%	0%	?	-8%	.	6%
CCn1c(N)c(C(=O)NCC2CCCO2)sc1=S (centres undefined)	-20%	1.0%	1%	-22%	3%	14%	-74%	-3%
Cc1ccc(-c2c[n+](CC(=O)Nc3cc(=O)n(C)c(=O)n3C)c3n2CCC3)cc1	-3%	-0.9%	15%	0%	4%	11%	22%	.
Cc1cc(C)cc(CC(CC(=O)Nc2ccc(Cl)cc2)C(=O)O)c1 (centres undefined)	.	.	-3%	0%	.	.	2%	-1%
COc1ccc(-c2cn3cccnc3n2)cc1NC(=O)c1ccc(Br)o1	?	-2.8%	-16%	-5%	0%	-24%	-46%	-10%
CS(=O)(=O)N1N=C(c2ccco2)CC1c1ccc(Cl)cc1 (centres undefined)	6%	-2.4%	1%	56%[activator]	?	-2%	21%	466%
Cn1c(CNC(=O)CSc2n[nH]c(-c3ccccc3Cl)n2)nc2ccccc21	5%	-4.6%	.	-6%	.	-3%[46.1 µM]	.	.
CCOC(=O)c1cc(-c2ccc(OC)cc2)n(CCC(=O)NC2CCCCC2)c1C	-8%	-2.8%	.	3%	.	-16%[46.1 µM]	.	.
CC1CCN(Cc2cc(=O)oc3cc4c(cc23)CCCC4)CC1	.	.	2%	37%[activator]	.	.	-2%	0%
COC(=O)c1ccc(Oc2ccc(C(C)(C)C)cc2)c([N+](=O)[O-])c1	6%	-4.7%	10%	2%	-21%	-9%	-4%	6%
CC(C)C(=O)Nc1ccc2c(c1)C(=O)N(CCC(=O)O)C2=O	-9%	-4.0%	-3%	3%	10%	-1%	3%	-6%
NS(=O)(=O)c1ccc(NC(=S)NC(=O)c2cccc(Br)c2)cc1	.	.	-1%	-19%	-35%[46.1 µM]	-9%	-10%	44%
Cc1cccc(Oc2ccc(NC(=O)CCC(=O)OCC(=O)c3ccc(Br)cc3)cc2)c1C	?	-4.3%	.	-1%	-7%[46.1 µM]	0%[46.1 µM]	.	.

(continued)
SMILES	Cruzain noTriton	Cruzain Triton	SARS PLpro yeast	StopGo reporter	Marburg entry inh	LASV entry inh	NS1 function inh	RE007 growth inh
O=C(c1cccc(S(=O)(=O)N2CCCC2)c1)N1CCCC(C(F)(F)F)C1 (centres undefined)	.	.	3%	-8%	5%	1%	.	3%
O=C(NC1CCCCC1)C(=S)NCc1ccccc1	.	.	0%	23%	?	12%[46.1 µM]	-10%	-13%
COc1cc(-c2noc(C)c2C(=O)NCCc2c[nH]c3ccccc23)cc(OC)c1OC	.	.	8%	-2%	.	.	2%	-3%
Cn1c(Cn2c(=O)sc3ccccc32)nnc1SCC(=O)N1CCCC1	0%	-2.6%	7%	5%	.	.	?	8%
CCOc1ccc(NC(=O)CN(C)C(=O)c2n[nH]c(=O)c3ccccc23)cc1OCC	.	.	-3%	-15%	18%	-4%	.	1%
CCN(CC)S(=O)(=O)c1ccc(C(=O)OCC(=O)NCCN2C(=O)CSC2=O)cc1	.	.	0%	0%	.	.	6%	-11%
COC(=O)c1ccc(CSc2nc3ccc(S(=O)(=O)N4CCOCC4)cc3[nH]2)cc1	21%	-6.7%	-10%	-12%	?	-12%	-4%	5%
CCOC(=O)C1CCN(C(=O)c2ccco2)CC1	5%	-0.4%	-2%	0%	-1%	-9%	1%	47%
